Compound activity (PubChem BioAssay)
BJeLR viability = MLPCN primary cell-based screen for lethality selective to Ras in HRASV12 cells | BJeLR (HRASV12) viability, CellTiter-Glo ATP luminescence, 48 h; reference of the scale not given here | inhibition, % (no concentration beside the values) | 0.17% of 300,000 active;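 active means replicate mean above 50%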;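 further: 50 nL library stock added to about 25 µL; numbers are from one replicate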
ugtP null kill = growth inhibition of ugtP-null S. aureus, primary screen, RN4220 ugtP deletion, OD600; 16 h; some inactives read as strong as hits; growth inhibition, % (concentration not given with the values); 0.54% of 330,000 active; AID 1259309, 2017;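 active means z-score under -3 and OD600 up to 0.15 on both plates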;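 further: plate controls were untreated wells for no effect and antibiotic for full effect; wells of about 80 µL received 100 nL stock; the first replicate is given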
PrP 5UTR inh = inhibition of PrP 5' UTR reporter expression | 0.35% of 340,000 active | inhibition, % (concentration not given with the values) | AID 488862, 2010 | cell-based PrP 5' UTR mRNA reporter, plate reader;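 active means every replicate at 50% or more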;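 further: 0 = median of the neutral control wells; tested in H4 reporter cells; numbers are from one replicate; inactives centre near -14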
Sa RN4220 lethal = growth inhibition of S. aureus RN4220, primary screen, OD600 | AID 1259311, 2017 | 16 h | inhibition, % (concentration not given with the values) | 0.33% of 330,000 active;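 active means z-score of -3 or lower and OD600 up to 0.18 on both plates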;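 further: plate controls were untreated cells for no effect and reference antibiotic for full effect; stock transfer was 100 nL into about 80 µL; one replicate is shown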
Bead autofluor = counter-screen for toxin protease inhibitors: compound fluorescence; compound autofluorescence counterscreen, microsphere flow cytometry; stronger effect = higher value; fluorescence intensity (test concentration not listed); 3.1% of 360,000 active; AID 624483;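 active means at least 3 SD above the mean of all compounds, about 16000 in these data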;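 further: 100 nL of 1 mM stock went into each well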
Mtb hypoxia inh = PubChem AID 1159583; M. tuberculosis hypoxia-regulated fluorescent reporter, fluorescence; 0.1% of 300,000 active; fluorescence inhibition, % (test concentration not listed);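 active means 35 to 45% if threefold the growth effect, above 45% if 1.5-fold the growth effect; inactive means the rest, general growth blockers included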;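 further: wells of about 50 µL received 100 nL stock; 0% = vehicle wells and 100% = reference inhibitor wells; whole bacteria with a GFP reporter of the hypoxia response; strong numbers were not always called active; many hits fall short of the cut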
Mtb hypoxia inh growth = also measured in Mtb hypoxia inh; calls as there; growth inhibition, %; measured here: M. tuberculosis growth (absorbance);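 0% = vehicle and 100% = reference antibiotic; read after six days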
* marks the source's active call; other numbers are inactive results; / = no result given; & = joins results of further samples.

Second line of a record – BJeLR viability | ugtP null kill | PrP 5UTR inh | Sa RN4220 lethal | Bead autofluor | Mtb hypoxia inh | Mtb hypoxia inh growth
- CN(CC(=O)NCc1ccc(F)cc1)S(=O)(=O)c1cccc2nsnc12
 : -4 | 1 | -7 | 3.5 | 9506 | 19 | 18
- Nc1nc(F)cc(NCc2ccccc2)n1
 : -9 | 2 | -8 | 1.8 | 5349 | -1 | 7
- Cn1cccc1C=NNC(=O)c1ccncc1
 : / | 0 | / | 1.6 | / | / | /
- Brc1cccc(CNCc2cccs2)c1
 : -3 | 2 | -16 | 4.9 | 2068 | 7 | 8
- COc1cc(OC)cc(-c2c(-c3ccc(F)cc3)c3cc(-c4cnc(OC)nc4)ccc3n2C)c1
 : / | 5 | -9 | -9.0 | 3877 | 3 | 0
- COc1ccc(SCCN2CCC(O)CCC2=O)cc1 (centres undefined)
 : / | 4 | / | 8.6 | / | 1 | -2
- COc1cc(CN2CCC(CO)(CCOc3ccccc3)CC2)cc(OC)c1
 : -4 | 11 | -21 | 3.8 | 3729 | 9 | 3
- N#CC1(NC(=O)CSc2nnc(-c3ccccc3F)n2N)CCCCC1
 : 5 | 7 | -16 | 6.9 | / | -11 | -3
- CC(/C=N/NC(=O)c1cccc(F)c1)=C\c1ccccc1
 : 14 | / | -62 | / | 5828 | / | /
- COC(=O)c1ccccc1-c1ccc(C=NNC(N)=O)o1
 : / | 7 | / | 4.3 | / | 17 | 9
- C=CCOC(=O)C1=C[C@H](c2ccc(Br)cc2)C[C@H](OCc2ccc(CO)cc2)O1
 : 3 | / | -20 | / | 2610 | / | /
- CC1CCCCN1C(=O)CN1C(=O)NC2(CCCCC2C)C1=O (centres undefined)
 : / | 5 | -9 | 3.5 | 3426 | 9 | 11
- CC(=Cc1ccccc1)CC1=C(C)C2(CC2)[C@@](C)(O)C(O)C1=CCO (some centres undefined)
 : / | -10 | / | 2.3 | / | 0 | 5
- Cc1ccc(Sc2ccc(NC(=O)CCl)cc2)cc1C
 : -1 | -14 | 9 | 20 | 2421 | 14 | 14
- CCOC(=O)c1cc(=O)n(-c2ccc(Cl)cc2C)[nH]1
 : -10 | 1 | -18 | 6.0 | 2036 | -2 | -3
- Cc1c(Cl)cccc1N=c1c([N+](=O)[O-])nn(-c2ccccc2)n1O
 : 5 | -9 | -29 | -3.9 | 11211 | -1 | -1
- CC(=O)Oc1ccc(-n2c(=O)c3ccccc3c3ccccc3c2=O)cc1
 : 4 | 9 | 7 | 7.0 | 3472 | / | /
- O=C(O)CCNC(=O)c1ccc(N=Nc2ccc(O)c(C(=O)O)c2)cc1
 : -5 | -3 | / | 3.7 | / | 1 | 4
- O=C(c1cccnc1)N1CCN(C(=O)c2ccccc2F)CC1
 : -2 | -6 | -31 | -3.4 | 2858 | / | /
- O=C(O)c1ccccc1SCC(=O)N1CCCCC1
 : -1 | -1 | -20 | 5.0 | 2593 | / | /
- CC(=NNC(=O)C(=O)Nc1cccc(Cl)c1)c1ccncc1
 : / | 9 | / | -0.1 | / | 2 | -1
- COc1ccc(-n2c(Cc3cccn3C)nnc2SCC(=O)N2CCCc3ccccc32)cc1
 : 1 | -1 | -33 | 2.6 | 10902 | 1 | 5
- CCOC(=O)CN(C(=O)CSc1nnc(-c2ccc(OC)c(OC)c2)o1)c1ccccc1
 : -1 | 8 | -13 | 3.8 | 20211* | 4 | 14
- CC(C)c1nnc(NC(=O)C2CCN(C(=O)c3ccco3)CC2)s1
 : -7 | 3 | -10 | -3.7 | 4922 | 4 | -2
- Cc1cccc(NC(=O)CSc2nnc(Cn3nnc(-c4ccccc4)n3)n2-c2ccccc2)c1
 : -10 | -11 | -30 | 5.4 | 23099* | 0 | 11
- CCCOC(=O)Oc1ccc2c(=O)c(Oc3cc(C)cc(C)c3)coc2c1
 : -2 | 78 | -20 | 10 | 2098 | -2 | 11
- O=C(CN1c2ccccc2S(=O)(=O)c2ccccc21)Nc1ccccc1F
 : -8 | 7 | -2 | -3.0 | 4359 | -1 | -5
- Cn1c(SCC(=O)NC(=O)Nc2ccccc2)nnc1-c1ccncc1
 : -5 | -4 | / | 0.0 | 5525 | -3 | 6
- O=C(Cc1ccccc1)Nc1ccc(NC(=O)c2ccc(Br)cc2)cc1
 : 3 | 8 | -11 | 3.7 | 4171 | 1 | 2
- CCOC(=O)c1[nH]c(C)c(C(=O)N2CCN(C(=O)c3ccco3)CC2)c1C
 : -4 | 8 | -22 | 5.2 | 7638 | 8 | 4
- CC(C)CN(C(=O)C1CCCO1)C1CCS(=O)(=O)C1 (centres undefined)
 : 6 | 7 | -18 | -0.9 | 6430 | -1 | 7
- Cc1ccc(Nc2nnc(-c3ccncc3)s2)c(Br)c1
 : -10 | -7 | -19 | 9.2 | 9807 | -3 | 2
- Cc1cc(C(=O)NCc2ccccc2Cl)n(-c2ccccc2)n1
 : -13 | 11 | -11 | 18 | 3729 | 4 | 0
- COc1cccc(OCCSc2nc(C)c(Cc3ccccc3)c(=O)[nH]2)c1
 : 3 | 2 | -33 | 0.3 | 4154 | 0 | 2
- CCOC(=O)c1cc2c(C(F)(F)F)cc(-c3cccnc3)nc2o1
 : 0 | -6 | -10 | 2.2 | 2525 | -3 | 1
- O=C(N/N=C/c1cccs1)c1n[nH]c2c1CCCC2
 : 10 | / | 38 | / | 3844 | / | /
- Cc1cccc(-n2c(Cc3ccccc3)nnc2SCC(=O)N2CCOCC2)c1
 : 5 | 8 | -6 | 11 | 3112 | / | /
- COc1cc(/C=N/NC(=O)c2cccc(NC(=O)c3ccccc3)c2)ccc1O
 : -10 | / | -2 | / | 6243 | / | /
- O=C(C1=CC(C2CC2)CC(OCCCCO)O1)N1CCOCC1 (centres undefined)
 : / | -9&-17 | / | -0.9&-3.0 | / | -5&7 | -4&7
- N#C/C(=C/c1ccc(N2CCCCCC2)o1)c1ccc(F)cc1
 : -7 | 11 | -122 | 0.1 | 7360 | / | /
- Cc1nn(-c2cccc3cccnc23)c(=O)c2ccccc12
 : 7 | 11 | -8 | 3.8 | 4866 | / | /
- CN(C)/C=C/C1=C([N+](=O)[O-])C(c2cccc([N+](=O)[O-])c2)NC(=O)N1 (centres undefined)
 : 4 | 3 | -11 | 20 | 5783 | 12 | 6
- COc1ccccc1C(=O)Nc1ccnn1C1CCN(Cc2ccccc2OCCO)CC1
 : 2 | 5 | -18 | 2.2 | 6729 | 9 | 3
- CCOC(=O)C1C2COc3ccc(C)cc3C2N2C(=O)c3ccccc3NC(=O)[C@@]12C (some centres undefined)
 : / | 3 | / | 6.2 | / | 4 | 7
- Cn1c(SCC(=O)C(C)(C)C)nnc1-c1ccccn1
 : 2 | -10 | -30 | 5.4 | 9762 | 20 | 20
- Cc1ccc(NC(=O)C2CC(=O)N/C(=N/N=C/c3ccco3)S2)cc1 (centres undefined)
 : -3 | / | -20 | / | 1988 | / | /
- CCC[C@H](CN[C@@H](CNC)[C@H](C)CC)NCCc1cc(C(F)(F)F)cc(C(F)(F)F)c1
 : 7 | / | 5 | / | 3108 | / | /
- COc1ccc(C2=CC(c3cccc(OC)c3)n3nnnc3N2)cc1 (centres undefined)
 : -2 | 18 | -17 | 7.6 | 2273 | 2 | 0
- COc1ccc(NC(=O)CCCNC(=O)Cn2cnc3sc(C)c(C)c3c2=O)cc1Cl
 : -4 | -2 | -8 | -6.8 | 3739 | -4 | 2
- COCCN1C=C(C(=O)OC)C(c2ccccc2Cl)C(C(=O)OC)=C1
 : -7 | 5 | -20 | -2.0 | 4695 | 8 | 1
- CCOC1OC(C(=O)N2CCOCC2)=CC(c2ccccc2)C1CCCO (centres undefined)
 : / | -4 | / | -2.4 | / | -1 | 6
- Cc1cc(O)c(-c2ccno2)cc1Cl
 : 8 | -16 | -12 | 0.9 | 2539 | 7 | 9
- O=C(O)C(c1ccccc1)N1C(=O)/C(=C\c2ccc(-c3ccc(Br)cc3)o2)SC1=S (centres undefined)
 : 10 | / | -16 | / | 4524 | / | /
- O=C(COC(=O)c1cc([N+](=O)[O-])ccc1N1CCOCC1)c1ccccc1Cl
 : 5 | -3 | -10 | 4.8 | 5717 | 1 | -8
- O=C(Nc1ccc(S(=O)(=O)Nc2nccs2)cc1)C1CC(=O)N(c2ccc(Cl)cc2)C1 (centres undefined)
 : -8 | 15 | -17 | 2.5 | 4001 | 23 | 23
- COc1ccc2o/c(=N\O)c(C(=O)Nc3ccccc3OC)cc2c1
 : 2 | / | -33 | / | 2387 | / | /
- Cc1cc(C)c2ccc(=O)n(CC(=O)N/N=C/c3ccccc3Cl)c2n1
 : 0 | / | -13 | / | 5023 | / | /
- CCOC(=O)n1c(=O)n(Cc2ccc(Cl)cc2Cl)c2ccccc21
 : 2 | -4 | -16 | -3.6 | 2787 | / | /
- Cc1c(N=C2NN=C(c3ccc(Cl)cc3)CS2)c(=O)n(-c2ccccc2)n1C
 : 2 | -1 | -6 | 2.7 | 4242 | -1 | -1
- O=C(COc1ccccc1)Nc1ccc(Cl)cn1
 : -1 | 4 | -24 | 3.3 | 3390 | 12 | 10

(listing goes on)
Second line of a record – BJeLR viability | ugtP null kill | PrP 5UTR inh | Sa RN4220 lethal | Bead autofluor | Mtb hypoxia inh | Mtb hypoxia inh growth
- CN(C)CCCNC(=O)c1cc(C(=O)c2ccccc2F)c[nH]1
 : -2 | 3 | -6 | 1.7 | 3429 | -16 | -4
- CCOC(=O)C1=C(N)Oc2cc(C)oc(=O)c2C12C(=O)N1c3c(cccc32)C(C)CC1(C)C (centres undefined)
 : -22 | -6 | -2 | 3.0 | 10460 | -5 | 9
- O=C1CS(=O)(=O)c2ccccc2N1
 : -3 | 1 | -2 | 2.5 | 3734 | 6 | 5
- O=C(/C=C/c1cn(-c2ccccc2)nc1-c1cccc(Cl)c1)N1CCN(c2ccccn2)CC1
 : / | -78 | -19 | 13 | 4790 | 11 | 16
- O=C(CSc1ccc2nnc(-c3ccccn3)n2n1)NCc1ccc2c(c1)OCO2
 : -3 | 12 | -5 | 1.6 | 5349 | 6 | 13
- O=C(NCc1cccc(Cl)c1)C1CCC(=O)N(CCCN2CCCC2=O)C1 (centres undefined)
 : 2 | 15 | -28 | 3.8 | 4837 | 12 | 5
- CC(C)CN(CC(C)C)c1nnc(NC(=O)Cn2c(=O)oc3ccccc32)s1
 : 6 | 4 | -5 | 3.4 | 6071 | 15 | 7
- Cc1cc(N2CCOCC2)ccc1/C=C1\NC(=O)N(Cc2ccccc2F)C1=O
 : 2 | 14 | -11 | 3.5 | 5031 | 1 | 3
- CCN(C(=O)N1CCOCC1)c1ccccc1
 : 0 | 8 | 9 | -0.2 | 3657 | 2 | 5
- Cc1ccc(C)c(-c2ccc(=O)n(Cc3c(F)cccc3Cl)n2)c1
 : -8 | 18 | -20 | 2.2 | 4170 | 3 | -1
- Clc1ccc(C=NN2CCCCCC2)cc1Cl
 : / | 14 | -75 | 6.6 | 4304 | 1 | 8
- O=C(NCCCNC(=O)c1ccco1)c1ccc(Cl)c(Cl)c1
 : 1 | 2 | 2 | -2.3 | 6287 | 1 | 13
- CC(=O)c1c(C)[nH]c(C(=O)OCC(=O)Nc2sc3c(c2C#N)CCC(C)C3)c1C (centres undefined)
 : -4 | -10 | -16 | 0.4 | 4184 | -9 | -7
- O=C(NCc1cccnc1)C1COc2ccccc2O1 (centres undefined)
 : -3 | -1 | -10 | 2.3 | 3560 | 9 | 5
- O=c1[nH]c2cc(Cl)c(Cl)cc2o1
 : / | -4 | -12 | 5.0 | 3980 | 4 | 5
- CN(C)C(=O)C1Cc2ccccc2CN1S(=O)(=O)c1cccs1 (centres undefined)
 : 7 | 6 | -15 | 2.3 | 2157 | 5 | 5
- O=S(=O)(Cc1cc(Cl)nc(-c2ccccc2)n1)c1ccccc1
 : -8 | 9 | -14 | 5.2 | 10219 | 9 | 8
- NC1=NC(=O)/C(=C/c2cccc(F)c2)S1
 : 9 | -3 | -20 | 1.3 | 3969 | 1 | 1

Whole records, quoted from the list. Screens in order: BJeLR viability, ugtP null kill, PrP 5UTR inh, Sa RN4220 lethal, Bead autofluor, Mtb hypoxia inh, Mtb hypoxia inh growth
CC(=O)c1c(C)[nH]c(C(=O)OCC(=O)Nc2sc3c(c2C#N)CCC(C)C3)c1C (centres undefined) across the screens: -4, -10, -16, 0.4, 4184, -9, -7
CC(C)CN(CC(C)C)c1nnc(NC(=O)Cn2c(=O)oc3ccccc32)s1 across the screens: 6, 4, -5, 3.4, 6071, 15, 7
Clc1ccc(C=NN2CCCCCC2)cc1Cl across the screens: /, 14, -75, 6.6, 4304, 1, 8
